MITF inhib = MITF inhibition. TRPM1 promoter luciferase, luminescence, 24 h. inhibition, % (concentration not given with the values). hit rate 0.28% among 37,000;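 active = most replicates at 85% or more, or half of them and the mean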;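 also: human melanocyte line stably carrying TRPM1 promoter luciferase reporter; 0% = vehicle wells and 100% = a positive control; the first replicate is given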
PD-1 reverse act = activators reversing PD-1 mediated T-cell inhibition; primary human CD4 T cells, PD-L1 beads, CellTiter-Glo 96 h; activation, % (test concentration not listed); 29,000 tested, under 10 active; AID 2316;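 active = replicate mean of 50% or more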;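 also: 0% = median vehicle wells and 100% = positive control; 100 nL library stock added to about 50 µL; numbers are from one replicate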
Shh pathway inh = blocks Sonic Hedgehog signaling | Shh-LIGHT2 Gli-luciferase reporter, 30 h | inhibition, % (test concentration not listed) | hit rate 2.1% among 22,000 | AID 2313;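 active = replicate mean of 65% or more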;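 also: pathway switched on by Shh-conditioned medium diluted 1 in 25 in low serum; 100 nL library stock added to about 40 µL; 0% = median of neutral wells and 100% = positive control level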
YB-1 expr inh = YB-1 expression inhibition. U2OS, qRT-PCR YB-1 vs CDIP delta delta Cp, 16 h; stronger effect = higher value; zero = DMSO, each unit about twofold. delta delta Cp (YB-1 minus CDIP) (test concentration not listed). hit rate 0.37% among 30,000. AID 434959;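 active = delta delta Cp rounded down to an integer at or above 3, about 3 SD of DMSO wells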;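 also: higher means less YB-1 transcript or more CDIP transcript relative to DMSO; stock transfer was 100 nL into about 100 µL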
Numbers without * were called inactive.

Cc1noc(C)c1NC(=O)Nc1ccc2c(c1)C(=O)N([C@H](C)CO)C[C@H](C)[C@H](CN(C)C(=O)C1CCCCC1)OCCCC[C@@H](C)O2 was read as MITF inhib -5, PD-1 reverse act 0.4, Shh pathway inh -8 and YB-1 expr inh 0.17.
`Cc1noc(C)c1NC(=O)N(C)C[C@H]1Oc2c(NC(=O)Nc3ccc(F)cc3)cccc2C(=O)N([C@@H](C)CO)C[C@H]1C` gave MITF inhib -3, PD-1 reverse act -0.3, Shh pathway inh -12 and YB-1 expr inh -0.22.
Cc1ccc(S(=O)(=O)Nc2cccc3c2O[C@@H](CN(C)C(=O)Nc2ccc4c(c2)OCO4)[C@@H](C)CN([C@@H](C)CO)C3=O)cc1 was read as MITF inhib -2, PD-1 reverse act -1.1, Shh pathway inh -60 and YB-1 expr inh -0.083.
Screening C[C@H]1CN([C@@H](C)CO)C(=O)c2cc(NC(=O)CCC(F)(F)F)ccc2O[C@@H]1CN(C)C(=O)Nc1ccc(F)cc1 returned MITF inhib -7, PD-1 reverse act 0.4 and YB-1 expr inh 0.015.
For COc1ccc(NC(=O)Nc2ccc3c(c2)C(=O)N([C@@H](C)CO)C[C@H](C)[C@@H](CN(C)S(=O)(=O)c2ccccc2)O3)cc1 the results were MITF inhib -11, Shh pathway inh -45 and YB-1 expr inh 0.19.
Screening C[C@@H]1CN([C@H](C)CO)C(=O)c2cc(NS(=O)(=O)c3cccs3)ccc2O[C@@H]1CN(C)S(=O)(=O)c1cn(C)cn1 returned MITF inhib -4, PD-1 reverse act 0.6 and YB-1 expr inh 0.074.
Screening C[C@H]1CN([C@@H](C)CO)C(=O)c2cc(NC(=O)C3CC3)ccc2O[C@@H]1CN(C)Cc1ccc(C(=O)O)cc1 returned MITF inhib -5, PD-1 reverse act 0.1 and YB-1 expr inh 0.85.
`CCC(=O)Nc1ccc2nc(SCc3ccccc3C#N)sc2c1` gave MITF inhib -33 and PD-1 reverse act -1.1.
O=C(NCCNc1ccc(C(F)(F)F)cc1[N+](=O)[O-])c1cccc(Br)c1 was read as MITF inhib -25 and PD-1 reverse act 1.9.
Screening CC(=O)Nc1c(C(=O)O)oc2ccc(Br)cc12 returned MITF inhib 19, PD-1 reverse act 0.8 and YB-1 expr inh -0.46.
`COc1ccc(Cl)cc1NC(=O)C(C)n1nc(C)c([N+](=O)[O-])c1C` (stereo not given) gave MITF inhib 2 and PD-1 reverse act -1.5.
Screening CNC(=O)CCc1cc2ccccc2[nH]1 returned MITF inhib 6, PD-1 reverse act -0.3, Shh pathway inh 1 and YB-1 expr inh 0.22.
CC(=O)Nc1ccc(Nc2c3c4c(cccc4[nH]c2=O)C(=O)c2ccccc2-3)cc1 was read as MITF inhib 30, PD-1 reverse act -3.0, Shh pathway inh 88* and YB-1 expr inh 0.45.
For C=CCSCC1Nc2cc(Cl)c(S(N)(=O)=O)cc2S(=O)(=O)N1 (stereo not given) the results were MITF inhib 8, Shh pathway inh 23 and YB-1 expr inh -0.2.
For COc1c(Cl)cc(Cl)cc1CNCCNCC(C)O (stereo not given) the results were MITF inhib -25 and PD-1 reverse act -0.9.
`C[C@H](CO)N1C[C@H](C)[C@H](CN(C)C(=O)Nc2cccc3ccccc23)Oc2ccc(NC(=O)Cn3cnnn3)cc2CC1=O` gave MITF inhib 3 and YB-1 expr inh -0.049.
Screening C[C@@H]1CN([C@@H](C)CO)C(=O)Cc2cc(NS(=O)(=O)c3ccc(Cl)cc3)ccc2O[C@@H]1CN(C)Cc1ccccc1 returned MITF inhib -14, PD-1 reverse act -1.7, Shh pathway inh 29 and YB-1 expr inh -0.15.
For C[C@@H]1CN([C@H](C)CO)C(=O)Cc2cc(NS(=O)(=O)c3cccs3)ccc2O[C@H]1CN(C)Cc1ccncc1 the results were MITF inhib -12, PD-1 reverse act 0.6, Shh pathway inh 2 and YB-1 expr inh 0.62.
`Cc1noc(C)c1S(=O)(=O)N(C)C[C@H]1OCCCC[C@@H](C)Oc2ccc(NC(=O)Nc3ccc(C(F)(F)F)cc3)cc2C(=O)N([C@H](C)CO)C[C@@H]1C` gave MITF inhib 23, PD-1 reverse act -2.8, Shh pathway inh 31 and YB-1 expr inh 0.31.
Screening Cc1ccc(Nc2nc(N)nc(CSCCO)n2)cc1 returned MITF inhib -41 and PD-1 reverse act 2.3.
COc1ccc(S(=O)(=O)N(C)CC(=O)Nc2ccc(C(N)=O)cc2)cc1Cl was read as MITF inhib 3 and PD-1 reverse act -0.3.
COc1ccc([N+](=O)[O-])cc1N(CC(=O)Nc1cccc(C)c1)S(C)(=O)=O was read as MITF inhib 4 and PD-1 reverse act 3.5.
`Cc1cc(O)c2c(c1)C(=O)c1cc(O)cc(O)c1C2=O` gave MITF inhib -9, Shh pathway inh 1 and YB-1 expr inh -0.79.
Screening C[C@@H]1CN([C@@H](C)CO)C(=O)Cc2cc(NC(=O)CCC(F)(F)F)ccc2O[C@@H]1CN(C)C(=O)Nc1ccc2c(c1)OCO2 returned MITF inhib -4, PD-1 reverse act 1.9, Shh pathway inh -33 and YB-1 expr inh 0.35.
For Cc1noc(C)c1NC(=O)Nc1ccc2c(c1)CC(=O)N([C@@H](C)CO)C[C@H](C)[C@H](CN(C)C(=O)Nc1ccccc1)O2 the results were MITF inhib -4, PD-1 reverse act -0.2 and YB-1 expr inh -0.43.
Screening Cc1noc(C)c1NC(=O)N(C)C[C@H]1Oc2c(NS(=O)(=O)c3cccs3)cccc2C(=O)N([C@@H](C)CO)C[C@H]1C returned MITF inhib -4, PD-1 reverse act 1.8, Shh pathway inh -38 and YB-1 expr inh 0.13.
`CC(=O)c1cccc(NC(=O)C(C)NS(=O)(=O)c2ccc(F)cc2)c1` (stereo not given) gave MITF inhib -12 and PD-1 reverse act 0.4.
Screening C[C@@H]1CN([C@@H](C)CO)C(=O)c2cccc(NC(=O)Nc3ccccc3)c2O[C@@H]1CN(C)S(C)(=O)=O returned MITF inhib 0, PD-1 reverse act -1.1, Shh pathway inh 21 and YB-1 expr inh 0.24.
C[C@@H]1CN([C@@H](C)CO)C(=O)c2cc(NC(=O)Cn3cnnn3)ccc2O[C@H]1CN(C)C(=O)Nc1cccc2ccccc12 was read as MITF inhib 13 and YB-1 expr inh -0.095.
C[C@@H]1CN([C@H](C)CO)C(=O)c2cccc(NC(=O)C3CCOCC3)c2O[C@H]1CN(C)Cc1ccc(Oc2ccccc2)cc1 was read as MITF inhib 5, Shh pathway inh 30 and YB-1 expr inh -0.73.

Compounds shown so far that have a COOH group (2):
Screening C[C@H]1CN([C@@H](C)CO)C(=O)c2cc(NC(=O)C3CC3)ccc2O[C@@H]1CN(C)Cc1ccc(C(=O)O)cc1 returned MITF inhib -5, PD-1 reverse act 0.1 and YB-1 expr inh 0.85.
Screening CC(=O)Nc1c(C(=O)O)oc2ccc(Br)cc12 returned MITF inhib 19, PD-1 reverse act 0.8 and YB-1 expr inh -0.46.

(more compounds)
CNC[C@H]1Oc2ccc(NS(=O)(=O)c3ccc(OC)cc3)cc2C(=O)N([C@H](C)CO)C[C@H]1C was read as MITF inhib 4, Shh pathway inh -34 and YB-1 expr inh -0.13.
For C[C@H](CO)N1C[C@H](C)[C@H](CN(C)C(=O)Nc2cccc3ccccc23)Oc2ccc(NS(=O)(=O)c3ccc(F)cc3)cc2CC1=O the results were MITF inhib -19 and YB-1 expr inh 0.5.
CSc1sc(C(=O)Sc2ccccc2)cc1S(=O)(=O)C(C)C was read as MITF inhib 0, PD-1 reverse act 1.1, Shh pathway inh -15 and YB-1 expr inh 0.12.
`C[C@@H]1CN([C@H](C)CO)C(=O)Cc2cc(NS(=O)(=O)c3ccc(F)cc3)ccc2O[C@@H]1CN(C)C(=O)NC1CCCCC1` gave MITF inhib -3, PD-1 reverse act -1.0, Shh pathway inh -23 and YB-1 expr inh -0.18.
O=C(COc1cccc(NC(=O)c2ccccc2[N+](=O)[O-])c1)c1ccc(F)cc1 was read as MITF inhib 0 and PD-1 reverse act 0.2.
`C[C@@H]1CN([C@@H](C)CO)C(=O)Cc2cc(NC(=O)Cc3ccccc3)ccc2O[C@@H]1CN(C)Cc1ccccc1` gave MITF inhib -5, PD-1 reverse act 0.8, Shh pathway inh -10 and YB-1 expr inh 0.16.
`COc1ccc(NC(=O)N(C)C[C@H]2Oc3ccc(NS(=O)(=O)c4ccccc4)cc3C(=O)N([C@@H](C)CO)C[C@H]2C)cc1` gave MITF inhib -4, PD-1 reverse act -1.1 and YB-1 expr inh -0.011.
`C[C@H](CO)N1C[C@H](C)[C@H](CN(C)S(=O)(=O)c2ccc(Cl)cc2)Oc2c(NC(=O)Nc3cccc4ccccc34)cccc2C1=O` gave MITF inhib -2, PD-1 reverse act 0.7, Shh pathway inh 1 and YB-1 expr inh -0.38.
Screening C[C@@H]1CN([C@@H](C)CO)C(=O)c2cccc(NC(=O)Nc3ccc4c(c3)OCO4)c2O[C@@H]1CN(C)S(=O)(=O)c1ccccc1 returned MITF inhib -11, PD-1 reverse act -4.2, Shh pathway inh -49 and YB-1 expr inh 2.1.
`C[C@@H]1CN([C@@H](C)CO)C(=O)c2cccc(NS(C)(=O)=O)c2O[C@@H]1CN(C)C(=O)NC1CCCCC1` gave MITF inhib -9, PD-1 reverse act 2.0, Shh pathway inh -6 and YB-1 expr inh -0.28.

Of the compounds above, these have an NH in an aromatic ring.
Screening CNC(=O)CCc1cc2ccccc2[nH]1 returned MITF inhib 6, PD-1 reverse act -0.3, Shh pathway inh 1 and YB-1 expr inh 0.22.
CC(=O)Nc1ccc(Nc2c3c4c(cccc4[nH]c2=O)C(=O)c2ccccc2-3)cc1 was read as MITF inhib 30, PD-1 reverse act -3.0, Shh pathway inh 88* and YB-1 expr inh 0.45.

Continuation:
For Cn1c(SCc2nc3ccccc3[nH]2)nnc1-c1ccccn1 the results were MITF inhib 0 and PD-1 reverse act -0.2.
Screening CC(C)c1ccc2c(c1)C(O)CC1C(C)(CO)CCCC21C (stereo not given) returned MITF inhib 9, PD-1 reverse act 0.1, Shh pathway inh -42 and YB-1 expr inh -0.065.
For COC(=O)C1=C[C@@H](O)[C@@H](O)[C@H](O[C@@H]2O[C@H](COC(=O)/C=C/c3ccccc3)[C@@H](O)[C@H](O)[C@H]2O)C1 the results were MITF inhib 1, PD-1 reverse act 1.5, Shh pathway inh -16 and YB-1 expr inh -0.59.
For COc1ccc(S(=O)(=O)N(C)C[C@H]2Oc3ccc(NC(=O)Nc4ccccc4)cc3CC(=O)N([C@H](C)CO)C[C@H]2C)cc1 the results were MITF inhib 12, PD-1 reverse act -0.1, Shh pathway inh 0 and YB-1 expr inh -0.13.
Screening C[C@@H]1CN([C@@H](C)CO)C(=O)c2cc(NC(=O)CCCN(C)C)ccc2O[C@H]1CN(C)C(=O)NC1CCCCC1 returned MITF inhib 8, PD-1 reverse act 1.2, Shh pathway inh 29 and YB-1 expr inh 0.041.
For C[C@H](CO)N1C[C@H](C)[C@H](CN(C)CC2CCCCC2)Oc2ccc(NC(=O)CCC(F)(F)F)cc2C1=O the results were MITF inhib 0, PD-1 reverse act 0.9, Shh pathway inh -22 and YB-1 expr inh 0.02.
Screening Cc1cc(S(=O)(=O)N2CCC(NC(=O)Cc3ccccc3)CC2)c(Cl)cc1Cl returned MITF inhib 21, PD-1 reverse act -1.5, Shh pathway inh -6 and YB-1 expr inh -0.13.
For CC(=O)c1cccc(NC(=O)c2ccc(CNS(=O)(=O)c3ccc(C(C)(C)C)cc3)cc2)c1 the results were MITF inhib 20 and PD-1 reverse act -1.2.
Screening Cc1cc(S(=O)(=O)NCC(=O)O)ccc1Cl returned MITF inhib -27 and PD-1 reverse act 0.8.
Screening Cc1noc(C)c1S(=O)(=O)Nc1cccc2c1O[C@H](CN(C)C(=O)Nc1ccc3c(c1)OCO3)[C@H](C)CN([C@H](C)CO)C2=O returned MITF inhib -2, PD-1 reverse act 2.7, Shh pathway inh -8 and YB-1 expr inh 0.089.
For O=C(Nc1ccc2c(c1)OCCO2)c1ccc2nccnc2c1 the results were MITF inhib 28, PD-1 reverse act 3.9 and YB-1 expr inh -0.77.
Screening CO[C@H]1/C=C\O[C@@]2(C)Oc3c(C)c(O)c4c(O)c(c(/C=N/N5CCN(C)CC5)c(O)c4c3C2=O)NC(=O)/C(C)=C\C=C[C@H](C)[C@H](O)[C@@H](C)[C@@H](O)[C@@H](C)[C@H](OC(C)=O)[C@@H]1C returned MITF inhib 0, Shh pathway inh -15 and YB-1 expr inh -0.12.
COc1cc(O)c(CC=C(C)C)c(O)c1C(=O)CCc1ccc(O)cc1 was read as MITF inhib -37, PD-1 reverse act -0.9, Shh pathway inh -61 and YB-1 expr inh -0.21.
Screening COc1ccc(CN(C)C[C@@H]2Oc3c(NS(=O)(=O)c4ccccc4)cccc3C(=O)N([C@@H](C)CO)C[C@@H]2C)cc1 returned MITF inhib -15, PD-1 reverse act 3.0, Shh pathway inh 6 and YB-1 expr inh -0.062.
For C[C@@H]1CCCCO[C@@H](CN(C)C(=O)CCC(F)(F)F)[C@@H](C)CN([C@H](C)CO)C(=O)c2cc(N(C)C)ccc2O1 the results were MITF inhib 8, PD-1 reverse act 0.0, Shh pathway inh -22 and YB-1 expr inh -0.59.

Source: PubChem (Broad Institute)

This is a subset; the hit share may differ from the screen's.
